Screens (PubChem BioAssay)
Marburg entry inh = Marburg virus entry inhibition | Marburg virus pseudotyped entry inhibition, cell reporter; control for the full effect not named in the record; about a third of the inactives were read at about 46 µM | Potency, µM (series often up to 37.8 µM), without a hit: at the top dose activity change, negative = inhibition, usual class: inhibitors | 1.8% of 300,000 active; active = well fitted inhibition curve with a large enough effect; inconclusive = small, poorly fitted or top-dose-only effect, or effect the other way; inactive = flat fitted curve, though single readings scatter; tested in HEK293 cells; about a fifth of its hits are not listed in these tables; also: % is scaled to controls: 0 for no effect and ±100 for the full control effect; luciferase read-out
Cruzain Triton = blocks cruzain activity in presence of Triton detergent. P25779. purified cruzain, Z-FR-AMC fluorescence, 0.01% Triton. Potency, µM, for inactives: max response, negative = inhibition, actives largely listed as inhibitors. 0.43% of 200,000 active. AID 1478; active = well fitted curve in the direction sought with a large enough effect; inconclusive = small, poorly fitted or top-dose-only effect, or another doubt; inactive = no such curve, though single readings can be large; an effect the other way counts as inactive or inconclusive;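 also: plate controls were neutral wells for no effect and buffer without enzyme for full effect; nearly all actives have a fitted effect of over 40% in size; top concentration of the series not given in the record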
Target sequence (P25779 123-467 limits assumed): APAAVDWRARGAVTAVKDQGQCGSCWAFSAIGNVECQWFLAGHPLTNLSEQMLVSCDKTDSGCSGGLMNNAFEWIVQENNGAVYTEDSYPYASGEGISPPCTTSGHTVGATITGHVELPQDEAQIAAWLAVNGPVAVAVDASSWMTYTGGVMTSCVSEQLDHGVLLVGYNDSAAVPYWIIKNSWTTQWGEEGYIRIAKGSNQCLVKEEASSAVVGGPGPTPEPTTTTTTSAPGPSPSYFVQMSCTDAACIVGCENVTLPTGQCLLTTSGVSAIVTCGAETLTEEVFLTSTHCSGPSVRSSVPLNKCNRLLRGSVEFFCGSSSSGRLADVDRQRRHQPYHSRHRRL
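Cruzain (1.5 nM) preincubated 15 min at RT with compound in 100 mM sodium acetate pH 5.5, 5 mM DTT, 0.01% Triton X-100. Reaction started with 2 uM Z-FR-AMC; AMC fluorescence (ex 360/em 450 nm) change over 60 s gave rate.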
NS1 inh = blocks influenza NS1 protein function; AID 2326; 0.4% of 270,000 active; Potency, µM (highest dose often 46.1 µM), for inactives: at the top dose activity, positive = more growth; S. cerevisiae slowed by influenza A NS1, growth recovery by OD600; also: actives are rising curves; nearly all actives have a fitted effect of over 50% in size
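OD600 was taken as the measure of yeast growth restored by compound in an NS1-expressing S. cerevisiae strain. Cells had been washed out of glucose medium and diluted 1:100 into galactose -URA medium, pH 6.0.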
LASV entry inh = Lassa virus entry inhibition; Lassa virus pseudotype entry inhibition, cell reporter; control for the full effect not named in the record; Potency, µM (series often up to 37.9 µM), without a hit: at the highest dose activity change, negative = inhibition, usual class: inhibitors; 1.2% of 300,000 active; AID 540256; active means well fitted inhibition curve with a large enough effect; inconclusive means small, poorly fitted or top-dose-only effect, or effect the other way; inactive means flat fitted curve, though single readings scatter; tested in HEK293 cells; also: % is scaled to controls: 0 for no effect and ±100 for the full control effect; nearly all actives have a fitted effect of over 50% in size; luciferase read-out
RE007 growth inh = less growth of the S. pombe RE007 Vpr strain; S. pombe RE007 Vpr strain, BacTiter-Glo ATP luminescence, 24 h; control for the full effect not named in the record; Potency, µM (top dose mostly 92.2 µM), for the others: at the top dose activity change, negative = less growth; 0.21% of 360,000 active; AID 651644; active = well fitted falling curve with a large enough effect; inconclusive = small, poorly fitted or top-dose-only effect; inactive = no such curve, though single readings can be large or run the other way;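 also: % is scaled to controls: 0 for no effect and ±100 for the full control effect; nearly all actives have a fitted effect of over 50% in size; the assay follows cell death caused by Vpr and the record does not say whether a fall means rescue or toxicity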
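Fission yeast strain RE007, carrying one chromosomally integrated HIV-1 vpr copy, was seeded at OD 0.01 in PMG+AL medium with 23 nL pinned compound. After 24 h at 30 °C and 99% humidity, viability was read by BacTiter-Glo luminescence.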
SARS PLP yeast = blocks SARS-CoV papain-like protease in a yeast assay. S. cerevisiae expressing SARS-CoV PLpro, growth rescue; control for the full effect not named in the record. Potency, µM (doses to about 32.9 µM), without a hit: at the highest dose activity, positive = growth rescue. 0.19% of 330,000 active; also: 0% is about no effect; nearly all actives have a fitted effect of over 55% in size; growth read by luminescence after 48 h
Cruzain noTriton = blocks cruzain activity in detergent-free assay; purified cruzain, Z-FR-AMC fluorescence, no detergent; Potency, µM, inactives show max response, negative = inhibition, most hits filed as inhibitors; 2.3% of 200,000 active; AID 1476; active = well fitted curve in the direction sought with a large enough effect; inconclusive = small, poorly fitted or top-dose-only effect, or another doubt; inactive = no such curve, though single readings can be large; an effect the other way counts as inactive or inconclusive;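 also: plate controls were enzyme without inhibitor for no effect and buffer without enzyme for full effect; nearly all actives have a fitted effect of over 40% in size; top concentration of the series not given in the record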
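Purified cruzain at 1.5 nM, pre-incubated 15 min with compound at room temperature in 100 mM sodium acetate pH 5.5, 5 mM DTT, 0.00005% Triton X-100. Reaction started with 2 uM Z-FR-AMC; AMC fluorescence increase over 60 s gives rate.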
StopGo reporter = lowers the luciferase signal of an FMDV 2A StopGo reporter; Potency, µM (series often up to 57.9 µM), without a hit: at the top dose signal change, negative = less light; 1.2% of 410,000 active; human cells with a luciferase reporter of 2A StopGo recoding; control for the full effect not named in the record; active = well fitted falling curve with a large enough effect; inconclusive = small, poorly fitted or top-dose-only effect; inactive = no such curve, though single readings can be large or run the other way; tested in HEK293T cells; also: % is scaled to controls: 0 for no effect and ±100 for the full control effect; nearly all actives have a fitted effect of over 45% in size; luciferase light after 4 h
Active calls of the source: *; ? = inconclusive; · = not tested or not shown; & = joins results of further samples; [ ] = remark or other dose. Unless noted, calls follow the shape of the dose curve; as a rule, active means well fitted rising curve with a large enough effect; inconclusive means small, poorly fitted or top-dose-only effect; inactive means no such curve, though single readings can be large or run the other way. Potency is read from the fitted curve at half-maximal effect.

Structure,Marburg entry inh,Cruzain Triton,NS1 inh,LASV entry inh,RE007 growth inh,SARS PLP yeast,Cruzain noTriton,StopGo reporter
Cc1ccc(S(=O)(=O)CC(CN2CCOCC2)N2CCOCC2)cc1 (stereo not drawn),?,·,-1%,-4%,-4%,-1%,·,-1%
O=C(Nc1ccccc1C(=O)N1CCCCCC1)c1ccc(Cl)cc1,-9%[46.1 µM],·,·,-1%,-7%,-9%,·,16%
Oc1cccc(Nc2ncnc3ccccc23)c1,-18%,-2.5%,0%,-12%,-5%,4%,0%,·
COc1cccc(CNC(=O)CCn2cnc3ccccc3c2=O)c1,·,-3.0%,·,5%[46.1 µM],·,·,10%,-13%
COc1ccccc1-n1c2nc3ccccc3nc2c2c(=O)n(-c3cc(C)cc(C)c3)cnc21,?,-5.6%,?,5%,6%,-28%,?,?
O=C(NCC(=O)N1CCN(S(=O)(=O)/C=C/c2ccccc2)CC1)c1ccc(Cl)cc1,14%[46.1 µM],·,1%,-9%,12%,2%,·,5%
O=c1cc(N2CCN(c3ccc(F)cc3)CC2)[nH]c(=O)n1-c1cccc(Br)c1,·,-2.5%,·,?,·,·,-6%,3%
Cc1ccc([N+](=O)[O-])cc1NC(=O)Nc1ccc(S(N)(=O)=O)cc1,·,·,2%,·,-2%,1%,·,-11%
N=C(N)c1c(O)n(C2CCCCC2)c(=O)n(C2CCCCC2)c1=O,?,-8.2%,-200%,?,-24%,-27%,3%,-11%
Cc1ccc2nc3c(cc(C(=O)NC4CCCCC4)c(=N)n3C3CCCCC3)c(=O)n2c1,0%[46.1 µM],·,-7%,9%[46.1 µM],-6%,-3%,·,3%
Cc1cc(=O)oc(C)c1C(=O)NCCc1ccc(F)cc1,2%[46.1 µM],1.4%,0%,9%,16%,-11%,-5%,-5%
CCc1ccc(OCC(O)CN2CCN(c3ccc(OC)cc3)CC2)cc1 (stereo not drawn),·,·,3%,·,5%,-2%,·,-18%
COc1ccccc1NC(=O)CSc1nnc(Cn2c(=O)sc3ccccc32)n1C,·,-3.0%,2%,·,-5%,6%,8%,2%
Cc1ccc(NC(=O)c2cc([N+](=O)[O-])ccc2NCc2cccnc2)cc1Cl,?,-4.5%,15%,?,9%,-3%,?,-7%
COc1ccccc1CCc1nnc(N)s1,·,·,11%,·,-7%,1%,·,6%
CCCCn1c(SCC(=O)Nc2ccc(OCC)cc2)nc2ccsc2c1=O,·,0.6%,·,4%[46.1 µM],·,·,0%,-24%
C#CCOCCOCCOCCNc1nc(N2CCN(C(=O)[C@H]([C@@H](C)CC)n3cc(CCCN=C(N)N)nn3)CC2)nc(N2CCN(C(=O)[C@H]([C@@H](C)CC)n3cc(CCCN=C(N)N)nn3)CC2)n1,39%,?,-12%,0%,·,4%,?,·
COc1ccc(C(=O)c2ccc(OC)c(OC)c2OC)cc1,?,·,·,-26%,-15%,·,·,4%
O=S(=O)(Cc1ccc(Cl)cc1)N1CCN(Cc2ccc3c(c2)OCO3)CC1,3%[46.1 µM],·,0%,2%,-5%,-1%,·,14%
Cc1ccccc1-c1nn2c(=O)cc(CN3CCN(C(=O)COc4ccccc4Cl)CC3)nc2s1,·,-4.3%,·,8%[46.1 µM],·,·,?,0%

Additional compounds:
Structure,Marburg entry inh,Cruzain Triton,NS1 inh,LASV entry inh,RE007 growth inh,SARS PLP yeast,Cruzain noTriton,StopGo reporter
Cn1nnnc1Sc1ncnc2scc(-c3ccccc3)c12,7.1µM*,3.3%,-8%,?,-2%,1%,16µM*,22µM*
CC(C)OC(=O)c1cccnc1N1CCN(c2cccc(Cl)c2)CC1,·,·,-9%,·,-5%,-5%,·,-20%
O=C(Cn1ccc2ccccc2c1=O)NCCC(=O)N1CCN(c2cccc(C(F)(F)F)c2)CC1,-3%&5%,-3.6%,-7%,7%,-10%,2%,?,?
Cc1nc2c(C)cccn2c(=O)c1NC(=O)c1cccc2ccccc12,-3%,·,·,-19%,3%,-5%,·,0%
CCc1nc2ccc(C(=O)N3CCN(c4cc(Cl)ccc4C)CC3)cc2nc1CC,·,-1.1%,·,-10%[46.1 µM],·,·,?,-9%
COc1ccc(C(=O)Nc2ncccc2C)cc1S(=O)(=O)N1CCCc2ccccc21,26%,·,·,5%,-18%,-1%,·,29%
CCc1ccc(OCC(=O)Nc2ccc3oc(-c4ccc(OC)cc4)nc3c2)cc1,?,-0.9%,·,7%[46.1 µM],·,·,-8%,13%
Cc1cccc(NC2=C/C(=N/S(=O)(=O)c3cccs3)c3ccccc3C2=O)c1,?,-0.9%,11%,3.2µM*,-3%,3%,?,?
Cc1ccc(S(=O)(=O)N2CCCC2C(=O)NCc2ccccc2F)cc1 (stereo not drawn),·,·,16%,·,-14%,5%,·,-10%
CSCCC1NC(=O)N(CC(=O)Nc2ccc(Cl)c(S(=O)(=O)N3CCOCC3)c2)C1=O (stereo not drawn),?,·,·,-14%[46.1 µM],25%,20%,·,-12%
Cc1nc(NC(=O)c2ccc([N+](=O)[O-])cc2Cl)sc1C(=O)N(C)C,-31%,16µM*,-2%,-2%,-12%,-25%,-14%,10%
CCN(Cc1ccccc1)C(=O)CSc1nncn1C,2%[46.1 µM],·,·,13%[46.1 µM],5%,0%,·,-2%
CN(CC(=O)Nc1ccccc1F)CC(=O)Nc1ccccc1Br,18%[46.1 µM],·,·,19%,-12%,5%,·,-10%
CC(NC(=O)OCc1ccccc1)C(=O)Oc1cc2oc(=O)cc(-c3ccccc3)c2cc1Cl (stereo not drawn),-13%,22µM*,-25%,7%,0%,29%,?,-18%
C=C1C2(C(=O)NCc3ccco3)CCC(C2)C1(C)C (stereo not drawn),0%[46.1 µM],4.7%,0%,2%,13%,-3%,-10%,0%
CCCn1c(NC(=O)C2CCN(S(=O)(=O)c3cccs3)CC2)nc2ccccc21,13µM*,0.7%,-74%,?,30%,-6%,-1%,?
O=C1C=CN(C(=O)Oc2ccccc2)CC1,?,-2.6%,13%,-1%,6%,0%,14%,-16%
CCNc1nc(NC(C)C)nc(OCCNS(=O)(=O)c2cc(C)ccc2C)n1,-25%,3.1%,4%,-13%,4%,1%,3%,-16%
CCc1ccc(CNC(=O)C2CCN(S(=O)(=O)N3CCCC3)CC2)cc1,·,·,1%,·,-6%,-2%,·,?
COc1ccc(NC(=O)NCc2cccnc2)cc1OC,12%,1.1%,-4%,-7%,-5%,-2%,-10%,11%

Continued:
Structure,Marburg entry inh,Cruzain Triton,NS1 inh,LASV entry inh,RE007 growth inh,SARS PLP yeast,Cruzain noTriton,StopGo reporter
Cc1ccc2oc(-c3cccc(NC(=O)c4cccc5c(Cl)cccc45)c3)nc2c1,-1%[46.1 µM],-0.4%,·,-1%[46.1 µM],·,·,3%,12%
CCN(CC)S(=O)(=O)c1ccc2[nH]cc(C(=O)NCCCN3CCCCC3C)c(=O)c2c1 (stereo not drawn),9%,2.1%,-5%,-13%,-4%,27%,0%,·
Cc1csc(=O)n1CC(=O)OCC(=O)Nc1ccc(Cl)cc1F,-17%,·,·,2%,0%,3%,·,-14%
NS(=O)(=O)c1ccc(CCNC(=O)CN2CCN(c3ccccc3O)CC2)cc1,·,-0.8%,-3%,·,9%,10%,-6%,2%
O=C(NC1CCCCC1)C(c1ccccc1)N(C(=O)Cc1ccsc1)c1ccccc1 (stereo not drawn),10%,4.0%,-1%,-13%,-6%,-1%,16µM*,·
COc1ccc([N+](=O)[O-])cc1NC(=O)CCN1CCOCC1,3%[46.1 µM],·,5%,1%[46.1 µM],-7%,-1%,·,5%
COc1ccc(C(=O)NC(=S)N2CCCCC2)cc1,?,0.2%,?,?,-12%,9%,-15%,41%[activator]
CCOC(=O)c1ccccc1OC(=O)Oc1ccccc1C(=O)OCC,?,·,·,?,-14%,·,·,-1%
Cc1cccc(N/N=C/c2ccc(O)c(O)c2O)c1,·,·,-2%,·,15%,-1%,·,10%
O=C(OCc1cc2ccccc2[nH]c1=O)c1cccc([N+](=O)[O-])c1,·,·,3%,·,-2%,1%,·,6%
COC(=O)c1sc(=S)n(Cc2ccccc2)c1C,24%,·,-7%,14%,3%,1%,·,-16%
Cc1ccc(S(=O)(=O)N2CCC(C(=O)NCCC3=CCCCC3)CC2)c(C)c1,?,·,·,?,-2%,-2%,·,-11%
CCOC(=O)NC1(NCC(C)C)Oc2ccccc2O1,-3%,-1.7%,0%,?,-1%,-6%,-2%,-11%
Cc1ccc(NC(=O)C(=O)NC2CCCCC2)cc1,?,6.2%,-3%,2%,-4%,5%,?,37%[activator]
O=C(c1ccccc1)N1CCN(C(=O)c2cc3ccccc3o2)CC1,-3%,3.2%,-12%,-1%,8%,-3%,-2%,-7%
Cc1ccc2[nH]c3c(=O)n(Cc4ccncc4)cnc3c2c1,4%,-0.9%,5%,4%,7%,7%,-6%,4%
CCOC(=O)C1(CCc2ccccc2)CCN(C(=O)CCc2cnn(C)c2)CC1,5%[46.1 µM],·,-9%,-5%[46.1 µM],22%,-1%,·,-19%
COc1ccccc1CCC(=O)OCC(=O)Nc1ccc2[nH]c(=O)[nH]c2c1,22%,·,·,-6%,4%,-1%,·,2%
O=C(Cc1ccc([N+](=O)[O-])cc1)N1CCN(c2ccc([N+](=O)[O-])cc2)CC1,·,·,0%,·,6%,-1%,·,?
CCn1c(SCC(=O)OCc2ccccc2)nnc1-c1ccco1,1%,1.1%,-54%,5%,-5%,3%,-1%,13%

Next section:
Structure,Marburg entry inh,Cruzain Triton,NS1 inh,LASV entry inh,RE007 growth inh,SARS PLP yeast,Cruzain noTriton,StopGo reporter
Cc1cnc(C(=O)N2CCCC(C(=O)c3ccc(C(F)(F)F)cc3)C2)cn1 (stereo not drawn),11%,·,2%,6%,12%,-1%,·,9%
N#CC1C(=O)NC(=O)CC12CCCCC2 (stereo not drawn),-9%,·,·,-8%,7%,·,·,18%
CCN(CC)c1ccc(/C=N/NS(=O)(=O)c2cccc([N+](=O)[O-])c2)cc1,-4%,-14%,7%,-5%,·,-27%,-16%,29%
NS(=O)(=O)c1ccc(CCN=Cc2ccccc2O)cc1,?,-2.9%,16%,9%,7%,-3%,4%,-12%
